Screening results as filed in PubChem.
StopGo reporter – lowers the luciferase signal of an FMDV 2A StopGo reporter; human cells with a luciferase reporter of 2A StopGo recoding; control for the full effect not named in the record; Potency, µM (series often up to 57.9 µM), for the others: at the highest dose signal change, negative = less light; 410,000 tested, 1.2% active; AID 1159524; active = well fitted falling curve with a large enough effect; inconclusive = small, poorly fitted or top-dose-only effect; inactive = no such curve, though single readings can be large or run the other way; tested in HEK293T cells; note: % is set by controls: 0 for no effect and ±100 for the full control effect; nearly all actives have a fitted effect of over 45% in size; luciferase light after 4 h
SARS PLP yeast – blocks SARS-CoV papain-like protease in a yeast assay | S. cerevisiae expressing SARS-CoV PLpro, growth rescue; control for the full effect not named in the record | Potency, µM (series often up to 32.9 µM), inactives show at the top dose activity, positive = growth rescue | 330,000 tested, 0.19% active; note: 0% is about no effect; nearly all actives have a fitted effect of over 55% in size; growth read by luminescence after 48 h
Cruzain inh Det – cruzain (T. cruzi) inhibition with detergent; Potency, µM, without a hit: max response, negative = inhibition, actives largely listed as inhibitors; AID 1478; P25779; 200,000 tested, 0.43% active; purified cruzain, Z-FR-AMC fluorescence, 0.01% Triton; active = well fitted curve in the direction sought with a large enough effect; inconclusive = small, poorly fitted or top-dose-only effect, or another doubt; inactive = no such curve, though single readings can be large; an effect the other way counts as inactive or inconclusive;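 note: plate controls were neutral wells for no effect and buffer without enzyme for full effect; nearly all actives have a fitted effect of over 40% in size; top concentration of the series not given in the record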
Target sequence (P25779 123-467 limits assumed): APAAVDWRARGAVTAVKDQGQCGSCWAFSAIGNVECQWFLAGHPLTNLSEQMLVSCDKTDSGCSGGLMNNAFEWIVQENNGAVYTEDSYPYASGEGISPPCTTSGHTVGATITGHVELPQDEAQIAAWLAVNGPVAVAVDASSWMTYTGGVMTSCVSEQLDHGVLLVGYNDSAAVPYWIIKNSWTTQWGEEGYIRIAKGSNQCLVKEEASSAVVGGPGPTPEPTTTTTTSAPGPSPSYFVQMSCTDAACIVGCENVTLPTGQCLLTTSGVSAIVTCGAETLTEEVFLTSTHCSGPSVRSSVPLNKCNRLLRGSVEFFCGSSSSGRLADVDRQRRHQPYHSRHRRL
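Read-out: AMC fluorescence (360 nm excitation, 450 nm emission), four reads over 2 min, first-to-third difference used. Conditions: cruzain 1.5 nM, Z-FR-AMC 2 uM, pH 5.5 acetate, 5 mM DTT, 0.01% Triton X-100.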
Cruzain inh noDet – cruzain (T. cruzi) inhibition without detergent; P25779; purified cruzain, Z-FR-AMC fluorescence, no detergent; Potency, µM, inactives show max response, negative = inhibition, usual class: inhibitors; 200,000 tested, 2.3% active; AID 1476; active = well fitted curve in the direction sought with a large enough effect; inconclusive = small, poorly fitted or top-dose-only effect, or another doubt; inactive = no such curve, though single readings can be large; an effect the other way counts as inactive or inconclusive;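 note: plate controls were enzyme without inhibitor for no effect and buffer without enzyme for full effect; nearly all actives have a fitted effect of over 40% in size; top concentration of the series not given in the record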
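Purified cruzain at 1.5 nM, pre-incubated 15 min with compound at room temperature in 100 mM sodium acetate pH 5.5, 5 mM DTT, 0.00005% Triton X-100. Reaction started with 2 uM Z-FR-AMC; AMC fluorescence increase over 60 s gives rate.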
NS1 function inh – influenza NS1 inhibition; S. cerevisiae slowed by influenza A NS1, growth recovery by OD600; Potency, µM (highest dose often 46.1 µM), without a hit: top-dose activity, positive = more growth; 270,000 tested, 0.4% active; note: actives are rising curves; nearly all actives have a fitted effect of over 50% in size
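Recovery from NS1-induced slow growth read by OD600 in budding yeast switched to galactose assay medium (pH 6.0, -URA) at 1:100 dilution. Compound 23 nl per well; the matching strain lacking NS1 serves as control.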
RE007 growth inh – less growth of the S. pombe RE007 Vpr strain; Potency, µM (doses to about 92.2 µM), for the others: at the top dose activity change, negative = less growth; S. pombe RE007 Vpr strain, BacTiter-Glo ATP luminescence, 24 h; control for the full effect not named in the record; 360,000 tested, 0.21% active; active = well fitted falling curve with a large enough effect; inconclusive = small, poorly fitted or top-dose-only effect; inactive = no such curve, though single readings can be large or run the other way;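 note: % is set by controls: 0 for no effect and ±100 for the full control effect; nearly all actives have a fitted effect of over 50% in size; the assay follows cell death caused by Vpr and the record does not say whether a fall means rescue or toxicity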
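Fission yeast RE007 carrying one integrated HIV-1 vpr copy, seeded at OD 0.01 in PMG+AL medium with 23 nL pinned compound. Grown 24 h at 30 degrees; viability read by BacTiter-Glo luminescence after 5 min.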
LASV entry inh – inhibitors of Lassa virus binding or cell entry | 300,000 tested, 1.2% active | Lassa virus pseudotype entry inhibition, cell reporter; control for the full effect not named in the record | AID 540256 | Potency, µM (doses to about 37.9 µM), for the others: at the top dose activity change, negative = inhibition, actives largely listed as inhibitors; active means well fitted inhibition curve with a large enough effect; inconclusive means small, poorly fitted or top-dose-only effect, or effect the other way; inactive means flat fitted curve, though single readings scatter; tested in HEK293 cells; note: % is set by controls: 0 for no effect and ±100 for the full control effect; nearly all actives have a fitted effect of over 50% in size; luciferase read-out
MARV entry inh – inhibitors of Marburg virus binding or cell entry; Marburg virus pseudotyped entry inhibition, cell reporter; control for the full effect not named in the record; about a third of the inactives were read at about 46 µM; Potency, µM (doses to about 37.8 µM), inactives show at the highest dose activity change, negative = inhibition, most hits filed as inhibitors; 300,000 tested, 1.8% active; active = well fitted inhibition curve with a large enough effect; inconclusive = small, poorly fitted or top-dose-only effect, or effect the other way; inactive = flat fitted curve, though single readings scatter; tested in HEK293 cells; about a fifth of its hits are not listed in these tables; note: % is set by controls: 0 for no effect and ±100 for the full control effect; luciferase read-out
Starred values were filed as active, the others as inactive; ? = inconclusive; · = no result given; [ ] = dose if it differs, or a comment. Unless noted, calls come from the whole dose curve; as a rule, active means well fitted rising curve with a large enough effect; inconclusive means small, poorly fitted or top-dose-only effect; inactive means no such curve, though single readings can be large or run the other way. Potency is the fitted concentration of half-maximal effect.

SMILES	StopGo reporter	SARS PLP yeast	Cruzain inh Det	Cruzain inh noDet	NS1 function inh	RE007 growth inh	LASV entry inh	MARV entry inh
FC(F)(F)c1nc(NCc2cccnc2)c2ccccc2n1	-25%	-4%	·	·	18%	-23%	18%[46.1 µM]	-14%[46.1 µM]
O=C(Nc1ccc(F)cc1F)C1CCCN1S(=O)(=O)c1ccc(-c2ccc(=O)[nH]n2)s1 (stereo unspecified)	-1%	0%	·	·	14%	7%	·	·
Clc1ccc(CNc2ccc3nnc(-c4ccccc4)n3n2)cc1	-10%	-2%	1.0%	-4%	-11%	-4%	-14%	10%
CCOC(=O)N1CCN(C(=O)CCN2C(=O)/C(=C\c3ccccc3OC)SC2=S)CC1	-25%	-4%	·	·	13%	1%	13%	-10%
CCCCNC(=O)Nc1nnc(C(C)(C)C)s1	28%	1%	·	·	2%	33%	3%	2%
COc1ccccc1NC(=O)CSc1nnc(NC(=O)C2CCC2)s1	?	5%	·	·	-8%	-1%	2%	7%[46.1 µM]
O=C(Nc1ccc(Cl)c(Cl)c1)Oc1ccc(NC(=O)c2ccco2)cc1	6%	-35%	2.1%	-11%	-176%	-23%	0%	3%
S=C(Nc1cccc(Cl)c1)Nc1ccc2cn[nH]c2c1	52%[activator]	-19%	-11%	-12%	-14%	-17%	6%	-2%
Cc1cccc2c1N(C)C(=O)C2=O	3%	0%	·	·	·	3%	-5%	9%[46.1 µM]
COc1ccccc1-n1ccn(CC(=O)Nc2ccc(C)cc2Cl)c(=O)c1=O	13%	0%	·	·	·	1%	?	18%
COc1ccc(NC(=O)CCCOc2cc(=O)n(C)c3ccccc23)c(OC)c1	-3%	·	-2.8%	?	·	·	3%[46.1 µM]	-2%[46.1 µM]
COc1cc(C)ccc1OCc1cc(C(=O)NCCN2CCOCC2)no1	8%	-6%	·	·	0%	3%	?	13%
O=C(OCC(=O)N1CCOCC1)c1ccc(Br)cc1	20%	0%	·	·	-4%	33%	18%	11%[46.1 µM]
O=C(Nc1ccc(NC(=O)c2sc3ccccc3c2Cl)cc1)c1ccco1	?	3%	-3.5%	2%	-4%	-4%	1%	?
Cc1ccc(CCNC(=O)CS(=O)Cc2nc(-c3ccccc3C)oc2C)cc1 (stereo unspecified)	-8%	·	-5.8%	?	·	·	-1%[46.1 µM]	12%[46.1 µM]
CC(=O)Nc1ccc(S(=O)(=O)N2CCN(S(=O)(=O)c3cccs3)CC2)cc1	-22%	0%	·	·	·	6%	-7%	-7%
COc1cc(CN2CCc3nc(N4CCN(c5ncccn5)CC4)ncc3C2)cc(OC)c1OC	28µM*	·	-1.2%	16%	·	·	?	·
CCN(Cc1ccncc1)C(=S)NCc1ccccc1	27%	0%	·	·	·	-5%	·	-4%[46.1 µM]
CCCNC(=O)c1ccc(Cl)cc1Cl	14%	-1%	·	·	7%	-5%	22%	23%[46.1 µM]
C[C@@H]1C[C@H]2[C@@H]3CCC4=CC(=O)C=C[C@]4(C)[C@@]3(F)[C@@H](O)C[C@]2(C)[C@H]1C(=O)CO	-22%	10µM*	2.4%	11%	9%	8%	-22%	0%
CC1=C(C)[N+](=O)C2CCCCC2N1[O-] (stereo unspecified)	36%	4%	1.7%	-11%	-6%	-9%	24%	3%
CCC/C(=N/NC(=O)c1ccc2c(c1)OCO2)c1cccs1	36%[activator]	5%	-7.9%	-16%	?	-6%	2%	?
C[C@@H]1CCC(=O)N(CC[C@H](Sc2ccccc2)c2ccccc2)CC1	13%	-9%	·	·	-73%	6%	·	·
Cc1ccc(/C=N/n2c(C3CCCCC3)n[nH]c2=S)o1	-9%	?	-8.9%	-5%	16%	10%	-10%	?
CCN(c1ccc2c(c1)OCO2)S(=O)(=O)c1cc2c(cc1Br)CCN2C(=O)C1CC1	14%	·	·	·	·	0%	-23%	-30%

Next section.
SMILES	StopGo reporter	SARS PLP yeast	Cruzain inh Det	Cruzain inh noDet	NS1 function inh	RE007 growth inh	LASV entry inh	MARV entry inh
Nc1c(S(=O)(=O)c2cccs2)c2nc3ccccc3nc2n1Cc1ccc2c(c1)OCO2	·	18%	-3.4%	?	?	-5%	-39%	?
O=C(CSc1nc(=O)n(CCN2CCOCC2)c2c1CCCC2)Nc1ccc([N+](=O)[O-])cc1	0%	-3%	·	·	·	-19%	12%	-2%[46.1 µM]
Cc1ccc(S(=O)(=O)N2CCCNCC2)cc1	-6%	2%	·	·	4%	-12%	7%	0%[46.1 µM]
CNc1nc(Nc2ccc(C)c(Cl)c2)c2cnn(C)c2n1	?	-5%	·	·	-1%	0%	·	·
NS(=O)(=O)c1ccc(CNC(=O)C2CCCCC2)cc1	-16%	1%	1.3%	-15%	-3%	-13%	0%	24%
COc1cccc(/C=N/Nc2nc(N3CCCC3)nc(N3CCCC3)n2)c1O	·	1%	-12%	-6%	-8%	-13%	16%	26µM*
CCCC1=C(C(=O)OCC)C(c2cccnc2)n2nc(C)nc2N1 (stereo unspecified)	-6%	3%	·	·	-1%	-7%	1%	23%
Cc1c(C(=O)N2CCCCCC2)c(S(=O)(=O)Nc2cccc(F)c2)c(C)n1C	20%	0%	·	·	0%	-16%	·	·
CCOc1c(Br)cc(/C=C(\C#N)C(=O)NC2CC2)cc1OC	?	1%	·	·	13%	-6%	·	·
C/C(=N\NC(N)=S)c1ccc2c(c1)OCCO2	34%[activator]	2%	·	·	-5%	-26%	-27%	-2%
CC(=O)Oc1ccc(C(=O)Nc2cccc3c2CCCC3)cc1	0%	0%	·	·	-8%	6%	-19%	1%
Cc1ccc(C)c(NC(=S)NC(NC(=O)OCc2ccccc2)C(Cl)(Cl)Cl)c1 (stereo unspecified)	-8%	-14%	-5.2%	?	14%	1%	-22%	?
O=C(Nc1ccccc1)c1cn2ccccc2n1	?	-4%	·	·	-8%	-18%	·	·
O=C(NCCN1CCOCC1)c1ccc2c(c1)N(Cc1ccc(Cl)cc1)C(=O)CS2	-20%	1%	·	·	-1%	-2%	-7%	-29%[46.1 µM]
COC(=O)c1ccccc1N(Cc1ccccc1)S(C)(=O)=O	2%	1%	4.8%	13%	13%	0%	-5%	4%
CCOC(=O)COc1c(OC)cc(Cl)cc1C1Nc2ccccc2C(=O)N1c1ccccc1 (stereo unspecified)	·	-7%	-3.3%	-20%	12%	8%	?	3%
O=C(CCCN1C(=O)/C(=C\c2cccs2)SC1=S)Nc1ccccn1	4%	-4%	·	·	3%	2%	-28%	-11%[46.1 µM]
Cc1ccc(NC(=O)CN2C(=O)C(c3ccccc3)=NC23CCCCC3)cc1C	-23%	·	-4.9%	-25%	·	·	-7%[46.1 µM]	?
Cc1c(Nc2nc3ccccc3n3c(C)nnc23)cccc1C(=O)O	-3%	·	-7.8%	5%	·	·	-7%[46.1 µM]	·
COCCn1c(=O)c2c(nc3n2CCCN3CCc2ccccc2)n(C)c1=O	9%	-1%	·	·	-4%	2%	-27%[46.1 µM]	-16%[46.1 µM]
COc1cc(OC)cc(C(=O)Nc2ccc3nc(N4CCCCC4)cc(C)c3c2)c1	-13%	·	-14%	-5%	·	·	?	-20%[46.1 µM]
Cc1c2cnn(CC(=O)NCc3ccc(F)cc3)c(=O)c2c(C)n1Cc1ccccc1F	-18%	·	0.1%	-6%	·	·	7%[46.1 µM]	7%[46.1 µM]
c1ccc(-c2onc3cc4c(cc23)OCCO4)cc1	41%[activator]	-7%	-5.9%	-6%	-73%	?	-1%	15%
COc1cc2c(C(=O)N(C)c3cc(Cl)ccc3OC)cn(C)c(=O)c2cc1OC	-19%	-2%	·	·	-8%	-12%	4%[46.1 µM]	-21%[46.1 µM]
COCCCNC(=O)c1ccc(CNS(=O)(=O)c2ccc(NC(C)=O)cc2)cc1	-3%	9%	-8.2%	-7%	2%	5%	0%	2%[46.1 µM]

Further compounds
SMILES	StopGo reporter	SARS PLP yeast	Cruzain inh Det	Cruzain inh noDet	NS1 function inh	RE007 growth inh	LASV entry inh	MARV entry inh
COC(=O)C(C)N(C(=O)c1ccc(Cl)cc1)c1c(C)cccc1C (stereo unspecified)	-26%	-6%	-0.2%	3%	-6%	-9%	3%	?
CC(=O)c1ccc(N2CCN(c3ncccn3)CC2)cc1	36%[activator]	·	·	·	16%	-8%	10%	3%[46.1 µM]
O=C(c1cnccn1)N1CCCC(N2CCN(c3cccc(Cl)c3)CC2)C1 (stereo unspecified)	7%	2%	·	·	7%	-14%	4%	15%
C/C(CC(=O)NC(C)(C)C)=N\NC(N)=S	15%	?	·	·	-3%	-21%	15%[46.1 µM]	?
Cn1c(=O)n(-c2cccc(Cl)c2)c(=O)c2sc3ccccc3c21	-11%	·	-0.4%	-1%	·	·	4%[46.1 µM]	?
C=CCSc1nnc(NC(=O)CSc2nc(CCC)cc(=O)[nH]2)s1	-7%	0%	-0.3%	?	?	-2%	-2%	3%
Cc1nn(-c2ccccc2Cl)c2sc(C(=O)Nc3nnc(C4CC4)s3)cc12	-4%	18%	-2.4%	?	5%	7%	8%	-9%
CC(C)CCn1c(=O)c2cccnc2n(CC(=O)Nc2ccccc2F)c1=O	2%	·	-1.3%	-12%	·	·	·	7%[46.1 µM]
CCNC(=O)COC(=O)c1csc2c1CCCC2	17%	-3%	1.8%	6%	-42%	?	1%	-2%
Cc1cc(C)cc(-n2c(SCC(=O)N3CCC(C)CC3)nc3c([nH]c4ccccc43)c2=O)c1	-17%	·	-2.3%	1%	·	·	12%[46.1 µM]	·
Cc1cccc(N(C)C(=O)C2CCC(CNS(=O)(=O)c3cccc4nsnc34)CC2)c1 (stereo unspecified)	?	·	-0.6%	13%	·	·	-10%[46.1 µM]	-5%[46.1 µM]

The order is random. About 4.7% of those tested had a hit in this group.
